# From PubChem BioAssay
# PrP UTR inh: suppresses PrP 5' UTR mRNA reporter expression; AID 488862; inhibition, % (test concentration not listed); 340,000 tested, 0.35% active; cell-based PrP 5' UTR mRNA reporter, plate reader;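 active = every replicate at 50% or more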;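 also: 0 = median of the neutral control wells; tested in H4 reporter cells; numbers are from one replicate; inactives centre near -14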
# Autofluor counter: flagged as autofluorescent in microsphere protease counterscreen | compound autofluorescence counterscreen, microsphere flow cytometry; stronger effect = higher value | fluorescence intensity (test concentration not listed) | 360,000 tested, 3.1% active | AID 624483;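 active = at least 3 SD above the mean of all compounds, about 16000 in these data; inconclusive = too few beads counted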;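 also: 100 nL of 1 mM stock went into each well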
# BJeLR lethal: kills HRASV12-expressing BJeLR cells. inhibition, % (concentration not given with the values). AID 1554. 300,000 tested, 0.17% active. BJeLR (HRASV12) viability, CellTiter-Glo ATP luminescence, 48 h; reference of the scale not given here;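 active = replicate mean above 50%; inconclusive = above 50% but judged a plate artefact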;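 also: 50 nL library stock added to about 25 µL; numbers are from one replicate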
# Mtb hypoxia inh: reduces hypoxia-regulated biosensor signal in M. tuberculosis. fluorescence inhibition, % (concentration not given with the values). 300,000 tested, 0.1% active. M. tuberculosis hypoxia-regulated fluorescent reporter, fluorescence;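 active = 35 to 45% if threefold the growth effect, above 45% if 1.5-fold the growth effect; inactive = the rest, general growth blockers included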;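 also: wells of about 50 µL received 100 nL stock; 0% = vehicle wells and 100% = reference inhibitor wells; whole bacteria with a GFP reporter of the hypoxia response; strong numbers were not always called active; many hits fall short of the cut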
# Sa RN4220 lethal: kills Staphylococcus aureus RN4220 | S. aureus RN4220 growth, OD600, 16 h | inhibition, % (concentration not given with the values) | 330,000 tested, 0.33% active;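 active = z-score of -3 or lower and OD600 up to 0.18 on both plates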;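 also: plate controls were untreated cells for no effect and reference antibiotic for full effect; stock transfer was 100 nL into about 80 µL; one replicate is shown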
# Sa ugtP lethal: compounds lethal to S. aureus RN4220 ugtP deletion mutant; OD600 growth, 16 h; some inactives read as strong as hits; 330,000 tested, 0.54% active; growth inhibition, % (test concentration not listed);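 active = z-score under -3 and OD600 up to 0.15 on both plates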;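 also: plate controls were untreated wells for no effect and antibiotic for full effect; wells of about 80 µL received 100 nL stock; the first replicate is given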
# Mtb hypoxia inh growth: also measured in Mtb hypoxia inh; calls as there; growth inhibition, %; measured here: M. tuberculosis growth (absorbance);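 0% = vehicle and 100% = reference antibiotic; read after six days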
# An asterisk follows results filed as active; ? = inconclusive; . = no result given. Compounds were not picked by outcome (roughly 4% active in at least one column).
# Start of the data: the first 4 records, ahead of the listing:
SMILES,PrP UTR inh,Autofluor counter,BJeLR lethal,Mtb hypoxia inh,Mtb hypoxia inh growth,Sa RN4220 lethal,Sa ugtP lethal
Cc1ccc(-c2nc(CN(Cc3c(C)nn(C)c3C)C(C)C)c(C)o2)o1,-13,4406,-1,4,3,4.5,-2
COc1ccc(C(=O)NN=C(C)c2ccc(N3CCCCC3)cc2)cc1,.,.,.,5,2,3.5,-5
CCOc1ccc(C2SCC(=O)Nc3c2c(C)nn3C2CCOC(C)(C)C2)cc1 (stereo not given),3,?,3,1,3,4.4,7
N#Cc1ccsc1NC(=O)C1CCN(S(=O)(=O)c2cccs2)CC1,-12,?,0,6,-3,0.0,6

# This part in full, from the first entry:
SMILES,PrP UTR inh,Autofluor counter,BJeLR lethal,Mtb hypoxia inh,Mtb hypoxia inh growth,Sa RN4220 lethal,Sa ugtP lethal
Cc1ccc(-c2nc(CN(Cc3c(C)nn(C)c3C)C(C)C)c(C)o2)o1,-13,4406,-1,4,3,4.5,-2
COc1ccc(C(=O)NN=C(C)c2ccc(N3CCCCC3)cc2)cc1,.,.,.,5,2,3.5,-5
CCOc1ccc(C2SCC(=O)Nc3c2c(C)nn3C2CCOC(C)(C)C2)cc1 (stereo not given),3,?,3,1,3,4.4,7
N#Cc1ccsc1NC(=O)C1CCN(S(=O)(=O)c2cccs2)CC1,-12,?,0,6,-3,0.0,6
CC(Oc1ccc(Br)cc1)C(=O)Nc1ccc(S(=O)(=O)Nc2nccs2)cc1 (stereo not given),-10,5675,7,7,18,43,-1
CSc1ccc(CN(C)C(=O)CNC(=O)c2ccc3c(c2)OCO3)cc1,0,?,-11,.,.,.,.
COc1ccc(/C=C(/C(=O)c2cccs2)N2C=CC=CC2=C(C#N)C#N)cc1,-22,3159,-8,-8,-10,1.7,3
COc1ccc(C(C(=O)NC2CCCC2)N(C(=O)c2snc(-c3ccc(F)cc3)c2N)c2cccc(F)c2)cc1 (stereo not given),-18,23994*,-10,1,-5,11,14
Cc1cc(C)cc(NC(=S)N2CCC(NC(=O)c3ccc(F)cc3)CC2)c1,-2,4419,0,2,-10,-0.1,13
COc1ccc(NC2CCCN(C(=O)c3cccc(C)n3)C2)cc1OC (stereo not given),-4,5237,-3,5,-2,3.8,3
COc1cccc(Nc2c(Nc3cccc(OC)c3)c(=O)c2=O)c1,-10,4050,5,5,1,0.1,0
COc1ccc(-c2cn3cc(C)ccc3n2)cc1F,-1,3742,2,-2,5,12,8
CCOC(=O)CC(=O)NC(CC(=O)OC)c1ccc(C(C)C)cc1 (stereo not given),-16,4239,-1,-1,1,7.6,9
O=Nc1c(O)n(Cc2ccc(Cl)cc2)c2ccccc12,-17,3605,-2,11,11,5.5,-15
CC(=O)OCC(=O)[C@@]12OC3(CCCC3)O[C@@H]1C[C@H]1[C@@H]3CCC4=CC(=O)C=C[C@]4(C)[C@@]3(F)[C@@H](O)C[C@@]12C,0,4720,-16,.,.,.,.
COC(=O)c1ccccc1N=Nc1c(N)n[nH]c1N,-22,3663,11,-14,-1,7.4,2
CCNc1nc(NCc2ccccc2)nc(SCC(N)=O)n1,-13,3179,-5,1,-1,4.4,6
COC(=O)C1=C(C)N(Cc2ccccc2)C(=NCc2ccc3c(c2)OCO3)NC1c1ccccc1 (stereo not given),.,.,.,1,-2,1.8,-1
Cc1ccc(Nc2nc(=O)c3cccnc3s2)cc1,-76,12688,3,-1,11,4.0,-1
Cc1ccc(C2C(C#N)=C(N)Oc3n[nH]c(-c4cccs4)c32)s1 (stereo not given),-20,3923,8,11,12,7.5,3

# Results in Mtb hypoxia inh growth, Mtb hypoxia inh and Sa RN4220 lethal, for 2 of the compounds above:
smiles	Mtb hypoxia inh growth	Mtb hypoxia inh	Sa RN4220 lethal
COC(=O)c1ccccc1N=Nc1c(N)n[nH]c1N	-1	-14	7.4
CCNc1nc(NCc2ccccc2)nc(SCC(N)=O)n1	-1	1	4.4

# Next compounds.
SMILES,PrP UTR inh,Autofluor counter,BJeLR lethal,Mtb hypoxia inh,Mtb hypoxia inh growth,Sa RN4220 lethal,Sa ugtP lethal
COc1ccccc1CNC(=O)OCc1nccnc1C(=O)Nc1ccc(Br)cn1,-24,6146,-11,-4,3,3.2,-3
O=C(Oc1ccc(-c2cnc3ccccc3n2)cc1)c1cccc([N+](=O)[O-])c1,-92,3114,6,-2,8,5.1,-4
O=C(NC(=S)NC1CCS(=O)(=O)C1)c1ccccc1F (stereo not given),-3,6686,4,.,.,.,.
COc1ccc(C)cc1NC(=O)C1CCC(CNc2c(N3CCOCC3)c(=O)c2=O)CC1 (stereo not given),-4,5335,4,1,7,-0.1,-5
N#Cc1ccccc1Oc1ccccc1C=O,-28,3313,0,2,-4,-2.1,-17
N/C(=N\OC(=O)Nc1ccccc1)c1cccc(C(F)(F)F)c1,-12,3886,2,0,0,0.9,-7
Nc1nc(N)c2c(n1)CCCC2,-24,5068,3,-1,-9,4.8,1
CC(=O)Oc1cc(C(=O)OCC(=O)NC23CC4CC(CC(C4)C2)C3)cc(OC(C)=O)c1OC(C)=O,-13,3320,.,4,0,6.6,-11
CCOC(=O)N1CCN(CC(=O)NC(=O)Nc2ccc3c(c2)OCCO3)CC1,-13,5400,.,-1,-1,2.8,6
CC(C)N=C(NC#N)SCc1ccccc1,-24,2933,-1,.,.,-1.4,2
c1coc(C2=NCCc3ccccc32)c1,-1,3285,-1,10,2,6.1,-2
Cc1ccc(S(=O)(=O)N2CCC(C(=O)N[C@@H](C)C(=O)NC3CCCCC3)CC2)cc1,-19,4073,11,0,0,0.9,-5
COC(=O)[C@H](NC(=O)c1cc(-c2ccccc2)nc2ccccc12)c1ccccc1,-29,5316,6,.,.,.,.
CCC(C)(C)n1nnnc1C(c1ccc(N(C)C)cc1)N1CCN(C2CCCCC2)CC1 (stereo not given),-4,3510,.,.,.,1.4,-2
CN(C)S(=O)(=O)c1ccc(C(=O)Nc2nnc(SCc3ccccc3)s2)cc1,4,10386,-2,5,2,4.6,0
O=C(COC(=O)CNC(=O)c1cccc([N+](=O)[O-])c1)NCc1ccco1,-24,4388,-1,-6,11,14,3
COc1ccccc1-c1noc(-c2ccco2)n1,-91,4991,-14,.,.,4.0,2
Cc1ccc(N(CC(=O)N2CCN(c3ccccc3F)CC2)S(=O)(=O)c2c(C)noc2C)cc1,-1,5698,11,-12,4,-0.4,1
COC(=O)[C@H](Cc1ccccc1)NC(=O)NCCc1ccc(F)cc1,.,.,2,-3,14,2.1,5
O=C(NCc1ccc2c(c1)OCO2)c1ccc2c(c1)C(=O)N(CC1CCCO1)C2=O (stereo not given),-10,2067,12,.,.,0.3,-2
OC1(c2ccccc2)CC(=Nn2cnnc2)C=C1c1ccccc1 (stereo not given),.,.,.,8,4,1.5,6
Cc1c(Nc2nc3ccccc3nc2N2CCN(c3ccccc3)CC2)c(=O)n(-c2ccccc2)n1C,-22,5612,-6,2,5,-0.2,13
CCOC(=O)C1(CCOC)CCN(Cc2ccc3nonc3c2)CC1,2,4324,-4,0,2,3.0,10
COc1ccc(C(=O)N2CCN(c3ccccc3)CC2)cc1S(=O)(=O)N1CCCC1,-33,4173,-4,2,1,-1.8,8
Cc1ccc(S(=O)(=O)NCCC(=O)OCn2nnc3ccccc3c2=O)cc1,-16,3035,-3,7,2,-0.8,-16
CCn1c2ccccc2c2cc(NC(=O)C3CCN(S(=O)(=O)c4cccs4)CC3)ccc21,-9,11608,-1,5,-2,18,-4
CCN(CC)c1nc(-c2ccc(Cl)cc2)cc(C(F)(F)F)c1C#N,0,2318,13,9,3,-3.0,80
O=C(Nc1ccc(F)c(Cl)c1)C1CCCC1,.,5077,-6,-3,-1,2.1,-5
O=c1cc(CO)oc(CN2CCN(c3ccccc3)CC2)c1O,-8,4712,8,.,.,-1.2,8
C=CCN=C1CC(C)(C)CC(=O)/C1=C(\O)CCCN1C(=O)c2ccccc2C1=O,-14,4564,1,6,5,15,4
COc1ccc(C2C3C=CCC[C@@]3(C)C(=O)N2Cc2ccccc2)cc1Cl (stereo not given in full),.,.,.,-10,-2,-8.8,-6
CCc1nc(SCC(N)=O)c2c(=O)n(C)c(=O)n(C)c2n1,-19,6686,-3,0,5,5.3,6
COc1ccccc1CC(=O)OCC(=O)N1CCN(c2ccc(F)cc2)CC1,-26,8010,.,8,4,1.6,3
COc1cc(OC)nc(NC(=O)C(C)C)n1,-15,4830,-6,-4,-1,-2.7,-11
Cc1ccc(OCC(O)Cn2c(=N)n(Cc3ccccc3)c3ccccc32)cc1 (stereo not given),-9,22794*,-4,-2,12,-11,-24
CCN(CC)CCN1C(=O)C(O)=C(C(=O)c2cccs2)C1c1ccccn1 (stereo not given),-28,10131,-15,10,9,3.8,-3
Cc1cc(NC(=O)C(C)C)n(-c2nc3ccccc3s2)n1,-11,3557,1,-1,2,0.3,-12
O=C(NCCc1ccccc1)c1ccc2c(c1)S(=O)(=O)N=C1CCCCCN12,-13,5212,.,5,12,1.9,1
O=c1[nH]cnc(O)c1C(c1ccc2c(c1)OCO2)c1c(O)nc[nH]c1=O,-34,4325,-4,2,0,-4.6,-1
COc1ccc(CCNc2nc(Cl)nc(NC(C)(C)CO)n2)cc1OC,6,4070,-30,-4,8,3.8,-1

# 4 records drawn at random from those above, as already listed:
SMILES,PrP UTR inh,Autofluor counter,BJeLR lethal,Mtb hypoxia inh,Mtb hypoxia inh growth,Sa RN4220 lethal,Sa ugtP lethal
Cc1ccc(OCC(O)Cn2c(=N)n(Cc3ccccc3)c3ccccc32)cc1 (stereo not given),-9,22794*,-4,-2,12,-11,-24
COc1ccc(C2C3C=CCC[C@@]3(C)C(=O)N2Cc2ccccc2)cc1Cl (stereo not given in full),.,.,.,-10,-2,-8.8,-6
COc1ccccc1CC(=O)OCC(=O)N1CCN(c2ccc(F)cc2)CC1,-26,8010,.,8,4,1.6,3
O=c1[nH]cnc(O)c1C(c1ccc2c(c1)OCO2)c1c(O)nc[nH]c1=O,-34,4325,-4,2,0,-4.6,-1

# (listing goes on)
SMILES,PrP UTR inh,Autofluor counter,BJeLR lethal,Mtb hypoxia inh,Mtb hypoxia inh growth,Sa RN4220 lethal,Sa ugtP lethal
Cn1nc(C(=O)N2CCN(c3ccccc3)CC2)c2c1-c1ccccc1S(=O)(=O)C2,1,4040,-3,-2,-6,7.9,17
CC(=O)c1cccc(NC(=O)NNC(=O)c2ccc3ccccc3c2)c1,7,6237,-11,-7,6,-3.2,-5
Cc1cccc(OCCCSc2nc3ccc(C)cc3[nH]2)c1,-11,2802,4,4,1,-15,5
COC(=O)c1ccccc1COn1c(=O)c(C)[n+]([O-])c2ccccc21,-37,4179,-6,.,.,1.9,3
COc1ccc2[nH]c(C(=O)N3CCc4ccccc4C3)c(C)c2c1,-4,5770,-3,4,-3,9.0,-8
CCN1CCN(C(=O)CN(CCc2ccccc2)S(C)(=O)=O)CC1,-22,8198,-2,19,10,8.3,5
Cc1ccc(-c2[nH][nH]c(=O)c(=O)c2N=Nc2ccccc2)cc1,-2,3265,1,4,24,13,43
CC(=NCc1cccnc1)c1c(O)n(-c2ccccc2C)c(=O)[nH]c1=O,-5,20266*,4,6,10,1.5,1
CC1CCN(CCCN2C(=O)C3C(C(=O)Nc4cccc(Cl)c4)C4C=CC3(O4)C2C(=O)NC2CCCCC2)CC1 (stereo not given),-19,4101,5,1,-2,1.3,-5
CCC(=NN=C(CC)c1ccccc1)c1ccccc1,.,.,.,11,13,-3.3,55
CN(CC(=O)Nc1ccc(F)c(F)c1)S(=O)(=O)c1cccc2cccnc12,-24,.,1,-9,-6,0.2,3
Cc1ccnc(NC(=O)c2ccc(OCC3CCCO3)cc2)c1 (stereo not given),30,6177,20,16,11,6.7,5
O=C(CSc1nc2ccsc2c(=O)n1NC(=O)c1ccccc1)NCc1ccco1,-18,8169,-1,4,5,8.4,16
C=CCSc1ncnc2sc(C)c(C)c12,-13,4325,-6,-3,-3,13,45
COc1ccc(CCNC(=O)c2cccc(S(=O)(=O)N3CCOCC3)c2)cc1OC,-11,8975,.,3,7,4.0,3
CC(C)(C)N(NC(=O)c1ccccc1)C(=O)c1cccc(C(=O)N(NC(=O)c2ccccc2)C(C)(C)C)c1,4,2391,0,4,0,3.6,0
